gsp antag – antagonizes gsp, the McCune-Albright syndrome mutation; Potency, µM (highest dose often 76.9 µM), for the others: at the highest dose activity change, negative = inhibition, hits mostly inhibitors; AID 624288; actives 0.4% (n = 340,000); gsp-mutant cells, cAMP HTRF, 30 min; control for the full effect not named in the record; active = falling curve of any shape with a large fitted effect; inconclusive = falling curve, mostly with a smaller effect; inactive = flat or rising curve; cell line not stated here;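 also: intracellular cAMP measured with PDE inhibitor Ro 20-1724 present during compound exposure; potency is read from the fitted curve at half-maximal effect; % is scaled to controls: 0 for no effect and ±100 for the full control effect; nearly all actives have a fitted effect of over 65% in size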
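HTRF cAMP read-out (cAMP-d2 plus anti-cAMP antibody-K in lysis buffer, 30 min RT). Before lysis, cells are exposed to compounds with […] for 30 min at 37C in DPBS containing Ca/Mg, BSA and Tween 20.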
Six1-Eya2 blk – Six1/Eya2 interaction inhibition. Q15475+O00167. AlphaScreen GST-Six1/His-Eya2 binding, biochemical; stronger effect = lower value; control for the full effect not named in the record. activity change, % (test concentration not listed). actives 0.56% (n = 360,000). AID 651725; in the data active = activity change below about -65%; inconclusive = about -30% to -65%; inactive = above about -30%; also: % is scaled to controls: 0 for no effect and ±100 for the full control effect; compound concentration not given in the record
Target sequence (O00167 whole entry, looked up): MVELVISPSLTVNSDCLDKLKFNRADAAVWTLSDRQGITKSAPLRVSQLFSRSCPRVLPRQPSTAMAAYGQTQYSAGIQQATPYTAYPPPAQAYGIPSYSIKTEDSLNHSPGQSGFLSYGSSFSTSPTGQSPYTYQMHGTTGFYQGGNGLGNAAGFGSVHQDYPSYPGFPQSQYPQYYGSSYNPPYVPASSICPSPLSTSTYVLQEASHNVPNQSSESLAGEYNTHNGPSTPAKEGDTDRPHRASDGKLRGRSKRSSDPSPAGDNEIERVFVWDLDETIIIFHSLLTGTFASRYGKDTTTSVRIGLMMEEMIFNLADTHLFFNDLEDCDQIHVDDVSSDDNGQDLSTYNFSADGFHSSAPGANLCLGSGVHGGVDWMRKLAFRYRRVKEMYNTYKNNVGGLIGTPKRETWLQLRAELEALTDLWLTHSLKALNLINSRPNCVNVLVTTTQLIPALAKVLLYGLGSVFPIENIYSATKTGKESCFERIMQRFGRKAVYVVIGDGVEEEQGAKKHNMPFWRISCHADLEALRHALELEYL
Target sequence (Q15475 whole entry, looked up): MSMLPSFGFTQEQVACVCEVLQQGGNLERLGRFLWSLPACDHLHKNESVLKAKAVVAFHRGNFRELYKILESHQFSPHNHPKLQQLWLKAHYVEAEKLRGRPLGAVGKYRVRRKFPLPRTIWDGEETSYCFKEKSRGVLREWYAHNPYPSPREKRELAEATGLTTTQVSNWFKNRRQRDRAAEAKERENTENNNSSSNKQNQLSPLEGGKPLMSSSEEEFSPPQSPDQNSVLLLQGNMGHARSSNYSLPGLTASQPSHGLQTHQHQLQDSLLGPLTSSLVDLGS
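Homogeneous AlphaScreen proximity assay pairing GST-Six1 with His-tagged Eya2 (added as 5X mix: 250 nM and 500 nM) in 50 mM Tris pH 8.0, 300 mM NaCl, 1 mM TCEP. Glutathione donor and nickel acceptor beads; 1 h, 37 °C, dark.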
D2 ag – activates the human D2 dopamine receptor. P14416. DiscoveRx PathHunter D2 beta-arrestin, luminescence, 90 min; 100% = 57 uM dopamine signal. activation, % (no concentration beside the values). actives 0.084% (n = 360,000). AID 624465; in the data active = activation above about 40%; inconclusive = about 15% to 40%; inactive = below about 15%; also: compound concentration not given in the record; the text of the record calls up to 30% inactive
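DiscoveRx PathHunter D2 beta-arrestin cells (2,100/well) attached overnight, then compound-stimulated 90 min at 37 C in HBSS/10 mM HEPES/0.1% Tween-20 buffer; beta-galactosidase complementation read by luminescence after 1 h at ambient temperature. Dopamine 57 uM final (EC100) as control.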
D2 potentiator – potentiates the human D2 dopamine receptor allosterically; P14416; DiscoveRx D2 beta-arrestin cells, luminescence, 90 min; 100% = 57 uM dopamine signal; potentiation, % (no concentration beside the values); actives 0.23% (n = 360,000); active = potentiation of 50% or more; inconclusive = 30% to 50%; inactive = 30% or less;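 also: compound concentration not given in the record; tested on top of an EC20 dose of dopamine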
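D2 cells co-treated with compound plus 50 nM dopamine (EC20) for 90 min at 37 deg C to detect potentiation. Beta-arrestin recruitment was read as enzyme-fragment luminescence after 1 h at ambient temperature. Full response was set by 57 uM dopamine.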
gsp ag – agonists of gsp mutant (McCune-Albright syndrome); gsp mutant cells, cAMP HTRF, 30 min; control for the full effect not named in the record; Potency, µM (series often up to 76.9 µM), without a hit: at the top dose activation (cAMP increase), usual class: activators; actives 0.13% (n = 340,000); AID 624287; active = well fitted activation curve with a large enough effect; inconclusive = small, poorly fitted or top-dose-only effect, or another doubt; inactive = no such curve, though single readings can be large or run the other way; cell line not stated here;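 also: phosphodiesterase inhibitor Ro 20-1724 added with compounds to block cAMP breakdown; potency is read from the fitted curve at half-maximal effect; nearly all actives have a fitted effect of over 60% in size; about a fifth of the inactives were tested at one dose only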
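Cells stably selected in G418 were plated at 2000/well, grown 16-24 hr, then given compounds in DMSO with the PDE inhibitor […] (300 uM solution added) for 30 min at 37C; cAMP was read by HTRF.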
CtBP-E1A blk – blocks the CtBP interaction with E1A. AlphaScreen GST-E1A/His-CtBP binding, 1536-well; stronger effect = lower value; control for the full effect not named in the record. activity change, % (test concentration not listed). actives 0.49% (n = 340,000); in the data active means activity change below about -65%; inconclusive means about -30% to -65%; inactive means above about -30%; also: % is scaled to controls: 0 for no effect and ±100 for the full control effect; compound concentration not given in the record
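Protein mix (5X: 125 nM each GST-E1A, His-CtBP) was incubated with pinned compound 2 h at 37 deg C in dark, in 50 mM Tris pH 8.0 buffer with 300 mM NaCl. Glutathione donor and nickel acceptor beads followed; AlphaScreen signal read after 1 h.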
Active calls of the source: *; ? = inconclusive; / = not tested or not shown; [ ] = dose if it differs, or a comment.

SMILES	gsp antag	Six1-Eya2 blk	D2 ag	D2 potentiator	gsp ag	CtBP-E1A blk
CCN(CC)C(=O)CSc1nc(-c2ccccc2)ccc1C#N	3.0%	1.6	-3.5	-4.4	-8.8%	/
CCCC(=O)C1=C(O)C(C(=O)OC)C(C)(C)CC1=NC (stereo not drawn)	8.5%	4.3	1.7	-17.3	0.2%	4.7
CCN(CC)c1ccc(S(=O)(=O)N2CCOCC2)cc1NC(=O)COC(=O)c1ccco1	-1.5%	9.0	-0.9	3.1	-7.7%[15.4 µM]	0.6
Cc1ccc(S(=O)(=O)N[C@H](C(=O)NCC2CCC(C(=O)O)CC2)C(C)C)cc1 (stereo partly drawn)	4.6%	6.9	-1.5	-2.0	-3.6%[15.4 µM]	5.3
CC(C)CC(NC(=O)C(CO)NC(=O)C1CCC(=O)N1)C(N)=O (stereo not drawn)	5.6%	-1.0	-2.6	-8.6	-5.0%[15.4 µM]	9.0
CC(C)=CCC[C@](C)(O[C@@H]1O[C@H](CO[C@@H]2OC[C@@H](O)[C@H](O)[C@H]2O)[C@@H](O)[C@H](O)[C@H]1O)C1CC[C@]2(C)C1[C@H](O)CC1[C@@]3(C)CC[C@H](O[C@@H]4O[C@H](CO)[C@@H](O)[C@H](O)[C@H]4O)C(C)(C)C3CC[C@]12C (stereo partly drawn)	4.9%	-6.2	-2.7	-4.1	4.0%	-1.9
O=C(NCCc1ccccc1)c1ccc(NC(=O)c2cccnc2)cc1	-7.7%	-3.0	1.7	5.6	-28.7%	/
Cc1ccc(-c2cc(C(F)(F)F)n3ncc(C(=O)NCc4ccco4)c3n2)cc1	-12.8%	6.1	-1.2	-14.4	-7.0%	-3.8
Fc1ccc(N2CCN(Cc3cnc(Oc4ccc(Br)cc4)s3)CC2)cc1	-3.9%	-19.8	0.3	-31.1	-1.3%	-20.9
Clc1cnc(N/N=C/c2ccncc2)c(Cl)c1	3.3%	1.7	-0.8	-6.8	-18.0%	-0.3
Cc1c(O)c(S(=O)c2ccccc2)c(=O)n(-c2ccccc2)c1-c1ccccc1 (stereo not drawn)	-22.3%	-19.0	-0.7	19.6	6.4%	-5.0
O=C(Nc1ccccc1)N1CCSCC1	5.0%	-2.6	-2.1	4.4	6.8%	8.3
CCn1c(C)nc2cc(C(=O)NNS(=O)(=O)c3cc(Br)ccc3Br)ccc21	-16.0%	-2.4	-2.8	-16.2	?	2.8
Cc1ccc(S(=O)(=O)N2CCCCC2)cc1C(=O)OC(C)C(=O)NCC1CCCCC1 (stereo not drawn)	-18.1%	-1.7	-0.9	-4.4	-1.1%	-0.9
CCn1cc(Br)c(C(=O)Nc2sc3c(c2C(N)=O)CCCC3)n1	0.9%	-6.3	-3.6	7.7	10.0%[15.4 µM]	-6.0
CCc1cc(C(=O)N2CCCC(C(=O)c3cccc(OC(C)C)c3)C2)n(C)n1 (stereo not drawn)	-10.9%	9.7	0.3	-1.8	?	0.8
CCCSc1ccc([C@@H]2[C@@H]3C(=O)N(C)C(=O)[C@@H]3[C@]3(C(=O)OC)CCCN23)cc1OC	-0.4%	0.6	-1.8	-8.9	24.4%	-0.6
CC(=NNC(=O)c1ccc(NS(=O)(=O)c2cccs2)cc1)c1ccc(OCC(N)=O)cc1	-11.7%	3.4	-6.9	-10.4	27.0%	-7.8
CCOC(=O)c1cc2c(=O)n3ccccc3nc2n(CC(C)C)c1=NC(=O)c1ccco1	-12.7%	-7.5	-2.7	-6.3	-21.7%	3.3
CCCCN1CC(COc2ccccc2)OC1=O (stereo not drawn)	-0.5%	5.5	-1.2	-15.5	-25.5%	3.0
Cc1nn(-c2ccccc2)c(C)c1/C=N/NC(=O)CSc1nnc(-c2ccccc2)n1-c1ccc(Cl)cc1	-9.3%	5.4	-4.3	-3.4	-24.3%	-2.0
Cc1ccc(N(CC(O)COCc2ccco2)S(=O)(=O)c2ccc(C)cc2)cc1 (stereo not drawn)	3.3%	-16.7	-2.2	-12.2	9.1%	-4.9
CCCCN1C(=O)c2ccccc2C1C(=O)NC1CCCC1 (stereo not drawn)	-3.0%	3.7	-2.1	-6.8	7.0%	2.2
Cc1nc2c(-c3ccc(F)cc3)c(C)nn2c(C)c1CCC(=O)NCc1ccco1	-8.1%	4.2	1.8	-5.4	0.3%	2.9
O=C(OCc1ccc(F)cc1)c1ccc2ccccc2n1	-6.1%	8.5	2.8	-5.2	-21.4%[15.4 µM]	3.1
Next structures.
SMILES	gsp antag	Six1-Eya2 blk	D2 ag	D2 potentiator	gsp ag	CtBP-E1A blk
Cc1ccc(Cn2ncn3c(cc4ccccc43)c2=O)cc1	-18.3%	-1.7	0.5	-15.6	-31.8%[inhibitor]	6.0
CC(=O)c1nn(-c2cccc(Br)c2)cc1C(=O)c1ccc(Cl)cc1	11.9%	3.9	9.6	4.5	0.3%	0.0
O=C(Cn1nc(C(=O)O)c2ccccc2c1=O)Nc1cccc(S(=O)(=O)N2CCCCCC2)c1	-26.1%	-3.6	-0.3	-8.5	5.1%	-2.4
N#Cc1ccccc1OCCN1C(=O)c2ccccc2C1=O	6.4%	19.6	-2.3	-3.7	-1.2%	0.0
CC(=O)Nc1ccc(Nc2ccc3nonc3c2[N+](=O)[O-])cc1	-3.7%	-23.3	1.9	-11.6	-45.0%[inhibitor]	-12.7
COc1ccccc1NC(=O)c1nc(S(=O)(=O)Cc2ccccc2)ncc1Cl	-7.0%	3.9	-2.8	-6.0	8.1%[15.4 µM]	1.7
Cc1ccc(C(=O)Nc2c(N)nc(SCC(=O)Nc3cc(C)on3)[nH]c2=O)cc1	9.2%	0.7	-0.5	0.1	14.9%[15.4 µM]	-3.2
COC(=O)CCNS(=O)(=O)c1ccc2nsnc2c1	6.1%	-1.0	-1.5	-8.7	17.1%	2.9
O=C(NNC(=O)c1ccc[nH]1)Nc1cc(Cl)cc(Cl)c1	3.2%	-6.5	0.0	-6.3	-42.8%[inhibitor]	-2.3
Cc1ccc(NC(=O)c2sccc2SCc2cccc(C(F)(F)F)c2)cc1	-18.4%	31.3	-2.1	-6.3	-4.5%	41.7
O=C(Nc1ccccc1)c1ccccc1CC[N+](=O)[O-]	-2.8%	-1.0	-0.8	-6.7	0.1%	4.7
O=C(COC(=O)c1ccc2c(c1)OCCO2)Nc1cc(S(=O)(=O)N2CCOCC2)ccc1Cl	-11.0%	-1.7	-0.8	-4.5	24.7%	3.2
Cc1ccc(-n2nnc(-c3cc4ccccc4n3C)n2)cc1	7.9%	2.2	-7.0	-10.9	?	-27.0
COc1ccccc1C(=O)CSc1nnc(-c2ccco2)o1	1.8%	-9.8	0.4	-15.2	-27.1%	-3.0
CC1Cc2cc(S(=O)(=O)N3CCC(C(=O)N4CCN(c5ccccc5F)CC4)CC3)ccc2N1C(=O)C1CC1 (stereo not drawn)	?	-8.0	6.5	8.6	21.6%	-6.7
COc1ccc(C(=O)/C=C2/C(=O)Nc3ccccc32)c(OC)c1	3.5%	3.8	-2.4	-14.5	5.5%[15.4 µM]	3.0
CCC1=NN(C(=O)C(=O)NCCc2ccccc2)C(O)(C(F)(F)F)C1 (stereo not drawn)	-13.3%	1.5	-4.4	-3.1	4.8%	8.0
CC1CC(C)CN(CC(O)COCc2ccccc2F)C1 (stereo not drawn)	2.4%	-8.0	7.0	-19.8	27.6%	-12.8
Cn1c2ccccc2c2c(C(=O)O)cn(C3CCCC3)c(=O)c21	-20.7%	-5.0	-5.6	-5.2	-31.0%[inhibitor]	0.7
C/C(O)=C(/C=NCC(=O)O)C(=O)Nc1nccs1	6.3%	-4.7	-0.6	-7.7	5.6%[15.4 µM]	1.2
CCOc1ccc(CNC(=O)CCCC(=O)n2nc(C)c3ccccc32)cc1	11.1%	2.0	-0.8	-5.8	?	2.6
CCOC(=O)N1CCC2(CC1)C(C#N)=C(N)OC1=C2C(=O)CCC1	3.5%	11.5	-1.4	-1.2	4.6%[15.4 µM]	9.2
COc1ccccc1NC(=S)NNC(=O)c1ccc(O)cc1	-2.8%	1.6	-6.9	-20.3	-9.9%	2.3
O=C(Oc1ccc(N(C(=O)c2ccncc2)S(=O)(=O)c2ccc(F)cc2)cc1)c1ccncc1	-4.6%	-6.2	-0.3	-2.2	-21.3%	-12.9
CN(CC(=O)Nc1c(Cl)cccc1Cl)C(=O)CC1OC(=O)c2ccccc21 (stereo not drawn)	-2.0%	-1.8	9.2	-2.6	29.4%	1.4

Fetched one by one from the entries so far:
SMILES	gsp antag	Six1-Eya2 blk	D2 ag	D2 potentiator	gsp ag	CtBP-E1A blk
CC1Cc2cc(S(=O)(=O)N3CCC(C(=O)N4CCN(c5ccccc5F)CC4)CC3)ccc2N1C(=O)C1CC1 (stereo not drawn)	?	-8.0	6.5	8.6	21.6%	-6.7
CCC1=NN(C(=O)C(=O)NCCc2ccccc2)C(O)(C(F)(F)F)C1 (stereo not drawn)	-13.3%	1.5	-4.4	-3.1	4.8%	8.0
COC(=O)CCNS(=O)(=O)c1ccc2nsnc2c1	6.1%	-1.0	-1.5	-8.7	17.1%	2.9
O=C(COC(=O)c1ccc2c(c1)OCCO2)Nc1cc(S(=O)(=O)N2CCOCC2)ccc1Cl	-11.0%	-1.7	-0.8	-4.5	24.7%	3.2
COc1ccccc1NC(=O)c1nc(S(=O)(=O)Cc2ccccc2)ncc1Cl	-7.0%	3.9	-2.8	-6.0	8.1%[15.4 µM]	1.7

Remaining list, next part.
SMILES	gsp antag	Six1-Eya2 blk	D2 ag	D2 potentiator	gsp ag	CtBP-E1A blk
COCCn1c(C)cc(/C=N/NC(=O)c2cc3ccccc3cc2O)c1C	2.0%	-14.3	-3.1	-24.7	8.4%	-2.6
O=C1[C@H]2[C@@H](c3ccc(F)cc3)N3C(=O)N(c4cccc(Br)c4)C(=O)[C@@]3(Cc3ccccc3)[C@H]2C(=O)N1C1CCCCC1	-11.8%	-4.6	0.4	-13.7	8.5%	-2.9
Cc1ccccc1-c1cc(C(=O)NCC2CC2)n(CC2CC(c3cccnc3)=NO2)n1 (stereo not drawn)	6.9%	4.7	-2.4	-18.1	/	0.2
CCCc1nc2nc(C)c(NS(=O)(=O)c3ccc(C)c(C)c3)c(=O)n2[nH]1	/	7.0	-6.2	0.8	-16.5%	7.8
Nc1nc(NC2CCCCC2)nc(NCCO)c1[N+](=O)[O-]	9.9%	-1.8	-2.6	-2.1	12.1%	-17.6
COc1ccc(/C=C2\SC(=S)N(CCCC(=O)N3CCOCC3)C2=O)cc1	?	-5.4	0.9	13.3	23.3%	-4.5
CC(C#N)Sc1ccc(S(=O)(=O)N2CCCCC2)cn1 (stereo not drawn)	2.3%	2.9	-6.9	0.0	-29.9%	-19.8
CSc1nsc(/C=C/Nc2ccc(C)c(C)c2)c1C#N	-19.5%	0.0	4.8	-7.2	-11.7%	/
Cc1ccccc1-c1nc(CS(=O)CC(=O)NCCN2CCOCC2)c(C)o1 (stereo not drawn)	1.0%	-1.9	-3.8	-9.3	-21.3%	-4.5
CCOC(=O)c1c(N=CN(C)C)c(C#N)n2c1CCC2	0.8%[15.4 µM]	-1.1	-1.9	-15.6	-3.5%	3.9
